# TRPV1 PAM – enhances activation of the human vanilloid receptor TRPV1 | potentiation, % at 8.33 µM | AID 540277 | Q8NER1 | 320,000 tested, 0.02% active | TRPV1-expressing cells, Fluo-8 calcium influx, capsaicin EC20 potentiation; host cell line not named in the record; control for the full effect not named in the record; active means potentiation above 80%; inconclusive means 30% to 80%; inactive means below 30%; also: 0% is about no effect
# Target sequence (Q8NER1 whole entry, looked up): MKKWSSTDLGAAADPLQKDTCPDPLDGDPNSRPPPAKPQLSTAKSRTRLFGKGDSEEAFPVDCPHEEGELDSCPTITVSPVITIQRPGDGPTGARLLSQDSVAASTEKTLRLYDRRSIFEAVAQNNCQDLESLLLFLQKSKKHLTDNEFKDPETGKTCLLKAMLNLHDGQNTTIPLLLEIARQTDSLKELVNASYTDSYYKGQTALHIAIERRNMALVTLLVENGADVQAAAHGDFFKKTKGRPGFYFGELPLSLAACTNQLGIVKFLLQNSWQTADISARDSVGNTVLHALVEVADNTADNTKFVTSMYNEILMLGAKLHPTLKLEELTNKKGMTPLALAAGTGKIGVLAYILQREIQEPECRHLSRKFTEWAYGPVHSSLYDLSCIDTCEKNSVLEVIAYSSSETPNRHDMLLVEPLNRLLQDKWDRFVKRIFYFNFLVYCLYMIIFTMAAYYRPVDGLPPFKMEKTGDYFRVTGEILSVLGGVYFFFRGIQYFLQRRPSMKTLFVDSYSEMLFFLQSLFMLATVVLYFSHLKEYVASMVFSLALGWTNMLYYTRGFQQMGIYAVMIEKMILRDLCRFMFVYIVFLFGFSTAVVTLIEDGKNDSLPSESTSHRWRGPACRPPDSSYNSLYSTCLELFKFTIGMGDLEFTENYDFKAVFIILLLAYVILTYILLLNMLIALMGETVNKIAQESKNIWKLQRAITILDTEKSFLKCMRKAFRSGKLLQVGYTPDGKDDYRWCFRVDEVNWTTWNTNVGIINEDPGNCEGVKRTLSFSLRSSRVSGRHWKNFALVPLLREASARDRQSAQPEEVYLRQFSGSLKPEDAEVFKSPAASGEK
#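 TRPV1-expressing cells were cultured overnight at 35.5C and loaded with Fluo-8 calcium dye for 40 to 90 min at room temperature. After a 10 s baseline, compound was added and calcium influx was read kinetically for 3 min (ex 480/em 520 nm).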
# TRPML1 blocker – blocks the human TRPML1 channel; Q9GZU1; TRPML1-inducible cells, Ca2+ dye fluorescence, FDSS; active compounds read low; inhibition of EC80 agonist-evoked calcium signal; activity change, negative = inhibition, % (concentration not given with the values); 390,000 tested, 0.02% active; in the data active means activity change below about -50%; inconclusive means about -30% to -50%; inactive means above about -30%;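 also: stimulus is agonist 54-4 at its EC80 concentration; % is scaled to controls: 0 for no effect and ±100 for the full control effect; the text of the record puts the active cut at -80%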
#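 TRPML1-DL cells, Tet-induced overnight (~16 h, 37 °C) at 1,500 cells/well, were loaded with Ca8 no-wash dye plus quencher for 45-90 min at room temperature. Compounds were pinned during FDSS kinetic reading; agonist 54-4 at EC80 (4 uM final) then added.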
# gsp agonist – gsp mutant agonism; Potency, µM (doses to about 76.9 µM), for inactives: at the highest dose activation (cAMP increase), hits mostly activators; AID 624287; gsp mutant cells, cAMP HTRF, 30 min; control for the full effect not named in the record; 340,000 tested, 0.13% active; active = well fitted activation curve with a large enough effect; inconclusive = small, poorly fitted or top-dose-only effect, or another doubt; inactive = no such curve, though single readings can be large or run the other way; cell line not stated here;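 also: phosphodiesterase inhibitor Ro 20-1724 added with compounds to block cAMP breakdown; potency is read from the fitted curve at half-maximal effect; nearly all actives have a fitted effect of over 60% in size; about a fifth of the inactives were tested at one dose only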
#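 Cells in DMEM/10% FBS with G418 were pretreated with compounds in DMSO plus […] (300 uM stock) for 30 min at 37C. cAMP was measured by HTRF (cAMP-d2 plus anti-cAMP antibody-K) after 30 min at room temperature.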
# Sfp PPTase inh – Sfp phosphopantetheinyl transferase inhibition; 310,000 tested, 3.5% active; AID 1490; Potency, µM, for the others: max response, negative = inhibition, most hits filed as inhibitors; Biochemical Sfp PPTase activity, qHTS; active = well fitted inhibition curve with a large enough effect; inconclusive = small, poorly fitted or top-dose-only effect, or another doubt; inactive = no such curve, though single readings can be large or run the other way;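 also: the enzyme is Sfp with the accession as filed and its product quenches rhodamine fluorescence; potency is read from the fitted curve at half-maximal effect; 0% = enzyme reaction without inhibitor and -100% = no enzyme wells; top concentration of the series not given in the record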
#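 Fluorescence-quenching assay with 15 nM Sfp, 5 uM rhodamine-CoA and 12.5 uM BHQ-2-labelled ybbR peptide in pH 7.6 Hepes/MgCl2 buffer. Enzyme was pre-incubated with compound for 15 min at room temperature. Rate was taken from the 30-min fluorescence change (525/598 nm).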
# Menin MLL FP FL – displaces fluorescein MLL peptide from human menin. AID 1766. Fluorescence polarization, fluorescein-MLL peptide displacement from menin. FP activity change, % at 61.4 µM. 290,000 tested, under 10 active; inconclusive = falling polarisation curve, or a change in total fluorescence; inactive = total fluorescence flat and polarisation flat or rising; no compound was filed as active; the % refers to the polarisation; negative = inhibition;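 also: % of control where 0% means no effect; inhibitors lower the polarisation; unlabelled MLL peptide was the positive control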
# ClpP mod – qHTS Assay for Activators of ClpP | purified B. subtilis ClpP, FRET peptide cleavage, 20 min | 340,000 tested, 1.9% active | Potency, µM (top dose mostly 57.5 µM), for inactives: at the highest dose activity change, negative = active | AID 651965, 2013; active = well fitted falling curve with a large enough effect; inconclusive = small, poorly fitted or top-dose-only effect; inactive = no such curve, though single readings can be large or run the other way; also: potency is read from the fitted curve at half-maximal effect; the source files actives as falling curves though it sought activators and does not explain the sign; nearly all actives have a fitted effect of over 65% in size; many hits overshoot -100%
# Target sequence (P80244 whole entry, looked up): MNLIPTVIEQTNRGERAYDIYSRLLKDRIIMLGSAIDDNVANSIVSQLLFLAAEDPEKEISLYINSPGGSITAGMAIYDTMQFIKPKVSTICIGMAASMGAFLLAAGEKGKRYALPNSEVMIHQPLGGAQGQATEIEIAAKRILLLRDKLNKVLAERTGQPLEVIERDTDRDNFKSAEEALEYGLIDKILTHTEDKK
#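 FRET quenching reversal measured ClpP activation: 10 microg/mL B. subtilis ClpP at pH 8 with the FRET-FV decapeptide, read at 430 nm after 320 nm excitation. The 20-min minus 0-min signal was scaled between DMSO/no-enzyme wells and ADEP (5.8 microM final).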
# gsp antag – gsp mutant antagonism; 340,000 tested, 0.4% active; Potency, µM (doses to about 76.9 µM), for the others: at the top dose activity change, negative = inhibition, hits mostly inhibitors; gsp-mutant cells, cAMP HTRF, 30 min; control for the full effect not named in the record; active = falling curve of any shape with a large fitted effect; inconclusive = falling curve, mostly with a smaller effect; inactive = flat or rising curve; cell line not stated here;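 also: intracellular cAMP measured with PDE inhibitor Ro 20-1724 present during compound exposure; potency is read from the fitted curve at half-maximal effect; % is scaled to controls: 0 for no effect and ±100 for the full control effect; nearly all actives have a fitted effect of over 65% in size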
#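 Cells, 2000/well, grown 16–24 h in DMEM 10% FBS with 0.5 mg/ml G418, then compounds plus […] (300 uM addition stock), 30 min at 37C. cAMP read by HTRF (cAMP-d2 and anti-cAMP antibody-K in lysis buffer) after 30 min RT.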
# Numbers without * were called inactive; ? = inconclusive; · = not tested or not shown; [ ] = dose if it differs, or a comment. Rows were taken by chance; any-hit rate near 4.9%.
SMILES,TRPV1 PAM,TRPML1 blocker,gsp agonist,Sfp PPTase inh,Menin MLL FP FL,ClpP mod,gsp antag
COc1ccc(CN(C)C(=O)Cc2ccc(OC)c(S(=O)(=O)N3CCOCC3)c2)cc1,-5,-11,12%[15.4 µM],·,·,·,-16%
O=C(CC1CCCCC1)NCc1ccccn1,-6,-9,-24%,9%,5.4,-0.3%,10%
O=C(NCC1CCCO1)c1ccc(COc2ccc(Br)cc2)cc1 (stereo not given),-4,-7,18%,-20%,-2.6,-3.2%,-12%
Cc1ccc2nc(-c3ccc(NC(=O)c4cccnc4)cc3)oc2c1,-10,-13,18%,?,1.0,-28%,-25%
c1cncc(C2OCC3(CO2)COC(c2cccnc2)OC3)c1 (stereo not given),-2,-2,-18%,10%,-1.4,0.9%,1%
Nc1ncnc2c1ncn2[C@@H]1O[C@H](CNC(=O)[C@@H]2CCN2)[C@@H](O)[C@H]1O,·,8,·,·,·,-0.1%,9%
O=C(Nc1ccc(Cl)cc1)Nc1cc([N+](=O)[O-])ccc1F,-14,4,-28%,-6%,5.1,-1.4%,14%
CCOC(=O)C(C)Sc1nc(=O)n2cc(C)ccc2n1 (stereo not given),3,-10,2%[15.4 µM],15%,-1.4,·,8%
CN(CC(=O)Nc1ccc(F)cc1)C(=O)COC(=O)c1cc([N+](=O)[O-])ccc1N1CCOCC1,?,-12,-9%[15.4 µM],·,·,·,-5%
O=C(O)c1sc2cc(C(F)(F)F)cnc2c1-c1cccs1,11,-12,-9%[15.4 µM],12%,0.7,·,-3%
COc1cc(C)c(NC(=O)COc2ccc3c(c2)OCO3)cc1C,-5,-4,-2%,11%,3.4,·,3%
CCOc1ccccc1NC1=C(Cl)C(=O)N(c2ccc(OC)cc2)C1=O,-14,27,0%,-22%,0.6,-2.0%,-16%
COCC(=O)N(Cc1cc2ccc(C)cc2[nH]c1=O)c1ccc(C)cc1C,-17,-5,5%[15.4 µM],14%,6.8,0.4%,-15%
N#Cc1ccccc1CSc1nc2ccc(NC(=O)c3ccccc3C(=O)O)cc2s1,1,10,?,-1%,-8.6,·,0%
CN1CCN(C(=O)c2ccc(S(=O)(=O)c3ccc(Br)cc3)cc2)CC1,-33,-3,-21%,5%,0.7,0.7%,0%
COCCOC(=O)c1[nH]c2c(c1C)C(=O)CC(c1cc(OC)ccc1OC)C2 (stereo not given),2,13,-12%,9%,0.5,0.7%,9%
CCc1cc(C(=O)OC)c(NC(=O)CC2Sc3ccc(C(F)(F)F)cc3NC2=O)s1 (stereo not given),-6,-1,-33%,16%,1.3,-11%,0%
CSc1ccc(NC(=O)Nc2cccn(Cc3ccccc3)c2=O)cc1,9,-6,13%[15.4 µM],5%,-2.5,0.2%,?
Cc1cc(C(=O)Nc2c(C)n(C)n(-c3ccccc3)c2=O)on1,22,-5,-18%,19%,3.6,-2.9%,3%
CCCS(=O)(=O)N1CCN=C1SCc1ccc(C)cc1,-4,0,-6%,15%,2.6,0.1%,6%
Cc1cc(C)c2c(=O)c3c(oc2c1)C(=O)N(CCO)C3c1cccc(O)c1 (stereo not given),-11,-56*,10%,-21%,3.4,?,-4%
COCc1cc(C)nc(OCC(=O)N/N=C/c2ccc(OC)c(O)c2)c1C#N,1,9,-10%,0%,7.4,-3.4%,59%[activator]
Cc1ccccc1NC(=O)NC1(C(=O)NCc2ccco2)CCCCC1,-2,29,-7%,15%,-1.1,·,-5%
O=C(Nc1ccccc1C(=O)O)c1cc(S(=O)(=O)N2CCCCCC2)ccc1Cl,5,3,-8%,12%,-4.2,·,?
CC1(C(=O)OCC(=O)Nc2ccccc2Cl)CC1(Cl)Cl (stereo not given),-12,10,-1%,4%,-2.7,·,7%
# More results
SMILES,TRPV1 PAM,TRPML1 blocker,gsp agonist,Sfp PPTase inh,Menin MLL FP FL,ClpP mod,gsp antag
CC(=O)N1CCCc2cc(S(=O)(=O)N3CCc4ccccc4C3)ccc21,-42,-5,-54%[inhibitor],-2%,1.0,0.7%,-5%
Cc1ccc(-c2nc(CS(=O)(=O)CC(=O)N3CC(C)CC(C)C3)c(C)o2)cc1 (stereo not given),14,-2,3%,-18%,-0.1,?,-9%
CCc1cc(Cn2nc(C(=O)O)cc2-c2ccccc2)on1,17,-9,?,·,·,0.1%,6%
CC(Sc1nc2ncc(Cl)cc2[nH]1)C(=O)c1c(N)n(C)c(=O)n(C)c1=O (stereo not given),-11,8,-6%,·,·,-2.3%,-1%
Cc1[nH]c(=O)[nH]c(=O)c1/C=N\NC(=O)CCc1ccc(OC(C)C)cc1,2,·,·,2%,0.6,·,·
COc1ccc(NS(=O)(=O)c2ccc(Oc3ncccn3)cc2)cc1,?,-1,16%,10%,-1.9,-2.6%,4%
COc1cc(/C=N\NC(=O)c2sc(N)nc2C)cc(OC)c1OC,22,-4,-13%,-2%,0.1,-0.5%,28%
Cc1cc(Cl)c2oc(C(=O)N(C)Cc3nccn3C)c(C)c2c1,-17,-3,3%,12%,-2.0,0.5%,-18%
Cn1c(CC(=O)Nc2ccc(Cl)c(Cl)c2)nnc1SCC(=O)N1CCN(c2ccccc2)CC1,12,1,?,24%,2.8,-0.6%,-22%
O=C1Nc2ccccc2C1=Nc1cccc([N+](=O)[O-])c1,-5,-7,-18%,8%,-2.1,2.5%,4%
COc1ccc(CN2CCN(C(=O)Cn3nc(C(=O)O)c4ccccc4c3=O)CC2)cc1F,-4,6,-27%,11%,0.0,-2.7%,-7%
Cc1ccc(CNCc2ccc3c(c2)OCO3)cc1,-9,-4,-14%[15.4 µM],-3%,-4.1,0.5%,10%
N#CC(C#N)=Cc1ccc(OC(=O)c2ccccn2)cc1,0,4,5%[15.4 µM],45µM*,8.9,-9.3%,1%
N#C/C(=C\c1ccccn1)c1nc2ccccc2s1,4,-13,?,-19%,?,·,29%
Cc1ccc(C(=O)COC(=O)c2ccc(-c3cnc4ccccc4n3)cc2)cc1C,1,-7,5%[15.4 µM],5%,6.7,-18%,-4%
Cc1cc(C(=O)N/N=C2\CCCc3ccccc32)c(C)o1,-9,12,?,9%,-1.0,-1.0%,-9%
Cc1nn(-c2ccc(F)cc2)c(-n2cccc2)c1C(=O)N1CCN(C(=O)c2ccco2)CC1,3,-1,-32%,5%,1.7,1.8%,?
COCc1cc(C)nc(SCc2ccc([N+](=O)[O-])cc2)c1C#N,0,17,-6%,6%,2.5,·,9%
CS(=O)(=O)N1CCN(c2ccccc2F)CC1,3,-7,-43%[inhibitor],14%,-1.2,1.2%,14%
COc1cccc(CN(C)C(=O)c2ccccc2Sc2ccccc2C#N)c1,11,16,-47%[inhibitor],-3%,·,-1.7%,-13%
N#Cc1cccc(-c2nnc(SCc3ccccc3C#N)o2)c1,-5,-9,-5%,-1%,3.1,4.2%,10%
N#C/C(=C\c1ccc(-c2ccc(C(=O)O)cc2)o1)C(=O)Nc1ccc(F)cc1,19,26,-21%,?,?,4.4%,-26%
Fc1ccc(-c2nc3ccc(Br)cn3c2Cc2ccccc2)cc1,·,10,?,·,·,-11%,·
CC1CCCN(C(=O)c2cn(-c3ccccc3)nc2-c2cccnc2)C1 (stereo not given),-7,-10,-11%,·,·,-1.1%,5%
COc1ccc(CN2CCNC(=O)C2CC(=O)NC2CCCCC2)c(OC)c1 (stereo not given),3,-3,-2%[15.4 µM],12%,·,-7.1%,10%

# Quoted at random: 2 records from the list
SMILES,TRPV1 PAM,TRPML1 blocker,gsp agonist,Sfp PPTase inh,Menin MLL FP FL,ClpP mod,gsp antag
Cc1ccc(-c2nc(CS(=O)(=O)CC(=O)N3CC(C)CC(C)C3)c(C)o2)cc1 (stereo not given),14,-2,3%,-18%,-0.1,?,-9%
N#Cc1cccc(-c2nnc(SCc3ccccc3C#N)o2)c1,-5,-9,-5%,-1%,3.1,4.2%,10%

# (more compounds)
SMILES,TRPV1 PAM,TRPML1 blocker,gsp agonist,Sfp PPTase inh,Menin MLL FP FL,ClpP mod,gsp antag
COc1ccc2sc(N3C(=O)C4CC=C(C)CC4C3=O)nc2c1 (stereo not given),4,9,-1%,10%,0.9,-3.7%,-7%
Cc1cc(NC(=O)c2cc([N+](=O)[O-])ccc2Cl)no1,2,6,-11%[15.4 µM],19%,2.3,-0.5%,2%
CC(C)NC(=O)Nc1ccc2c(c1)C(=O)N([C@H](C)CO)C[C@H](C)[C@@H](CN(C)C(=O)NC1CCCCC1)O2,·,11,·,·,·,-3.0%,2%
CCc1c(C(=O)NC2CCCC2)csc1C,-15,52,10%,19%,0.7,-1.7%,-4%
Cc1cc(C)n2nc(CC(=O)NNC(=O)COc3ccccc3)nc2n1,1,1,?,2%,·,·,15%
Cc1cc(NC(=O)CSc2ccc(-c3ccc(F)cc3)nn2)no1,11,26,-8%,4%,-4.5,·,-9%
O=C1CCC(=O)N1c1nc2nc(-c3ccccc3)cc(=O)n2[nH]1,0,2,23%,19%,3.3,-1.6%,7%
Cc1cccc(C)c1OCC(O)CNS(=O)(=O)c1ccccc1C(=O)N1CCOCC1 (stereo not given),3,-12,-5%,21%,0.7,-1.3%,11%
Nc1ccc(C(=O)C(=O)c2ccccc2)cc1,·,-22,5%,·,·,·,-10%
O=[N+]([O-])c1ccccc1COc1ccc(Cl)c2cccnc12,-1,-8,-19%,9%,-1.0,2.2%,6%
O=C(NC(=S)NNS(=O)(=O)c1ccccc1)c1ccccc1[N+](=O)[O-],14,7,6%,-5%,0.8,-1.0%,3%
CC(OC(=O)c1cccs1)C(=O)NCc1ccco1 (stereo not given),9,-8,-16%,11%,0.5,6.2%,-2%
CCc1nc(CN(C)C(=O)C2CCC(=O)N(CCc3cccc(F)c3)C2)no1 (stereo not given),4,-19,-1%[15.4 µM],9%,·,0.5%,5%
COC(=O)CN1C2(C#N)CCCCC2CC2CCCCC21C#N (stereo not given),-9,22,11%,-5%,-3.0,1.3%,9%
O=C(Nc1nc(COc2ccccc2)cs1)C1CCC1,11,-13,0%,7%,-2.5,2.6%,?
CC1=NN(c2ccccc2)C(=O)/C1=C\c1cc(C)n(C)c1C,-16,-9,-6%[15.4 µM],-4%,?,-0.4%,-21%
O=C(O)C1CCC(C(=O)O)O1 (stereo not given),·,-7,17%,·,·,·,9%
